Screening data as filed in PubChem BioAssay.
PABP FP inh – blocks human PABP binding to poly(A) RNA | hit rate 1% among 290,000 | inhibition, % at 35 µM | fluorescence polarization | P11940 | AID 2014;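 active = 50% or more with normal probe brightness, or confirmed in later tests; inconclusive = above 50% with abnormal brightness, or retests that disagree; inactive = below 50% or failed in later tests; about a fifth of its hits are not listed in these tables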;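 also: calls also rest on retests at 20 µM and on dose response follow-up; controls were probe without protein and protein plus probe with vehicle; some compounds called inactive have numbers as strong as hits; many hits fall short of the cut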
Target sequence (P11940 whole entry, looked up): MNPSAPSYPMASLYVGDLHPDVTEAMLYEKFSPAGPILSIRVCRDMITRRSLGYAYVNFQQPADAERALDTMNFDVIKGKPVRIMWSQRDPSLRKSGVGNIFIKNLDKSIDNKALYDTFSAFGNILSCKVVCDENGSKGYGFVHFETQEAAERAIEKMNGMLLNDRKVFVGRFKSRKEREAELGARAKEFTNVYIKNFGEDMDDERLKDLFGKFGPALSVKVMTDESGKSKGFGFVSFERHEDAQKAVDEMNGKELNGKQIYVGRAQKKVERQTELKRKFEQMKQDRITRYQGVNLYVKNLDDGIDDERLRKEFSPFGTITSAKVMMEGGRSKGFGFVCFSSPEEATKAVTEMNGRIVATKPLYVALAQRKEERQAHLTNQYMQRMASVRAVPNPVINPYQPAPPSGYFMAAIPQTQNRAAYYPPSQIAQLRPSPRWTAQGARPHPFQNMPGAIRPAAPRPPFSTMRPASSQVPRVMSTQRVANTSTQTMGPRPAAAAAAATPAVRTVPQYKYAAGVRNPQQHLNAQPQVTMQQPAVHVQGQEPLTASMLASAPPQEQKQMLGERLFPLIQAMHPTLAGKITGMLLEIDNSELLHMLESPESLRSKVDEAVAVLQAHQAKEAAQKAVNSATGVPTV
Yeast UUG start – yeast start codon fidelity modulation; S. cerevisiae UUG-firefly luciferase reporter, luminescence/redox ratio; activity score, % at 18.7 µM; hit rate 0.13% among 350,000; AID 602363;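 active = replicate mean at a twofold rise or more, about +100% in these data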;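 also: firefly luciferase made from a UUG start codon reports start codon fidelity; reporter light over untreated wells divided by growth signal over untreated wells; some hits fall short of that in this replicate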
MT1-MMP act inh – MT1-MMP (human) activation inhibition; HT1080 RFP-PRO-GFP cells, GFP/RFP ratio fluorescence, overnight; percent of plate control window, DMSO zero; GFP/RFP ratio change, % at 20 µM; hit rate 0.061% among 360,000;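 active = GFP/RFP ratio change of at least 30% with cell ATP level not reduced by more than half and red fluorescence within 50% of control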; also: strong numbers were not always called active
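Assay system: HT1080 RFP-PRO-GFP cells. Benchmarks: DMSO vehicle wells and RFP-L50D-GFP reporter cell wells. Times: overnight cell settling, then overnight compound exposure, 37 °C, 5% CO2. Compound: 20 µM single dose, 1% DMSO. Read-out basis: GFP/RFP fluorescence ratio.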
Rce1 inhib – inhibitors of yeast Ras-converting enzyme; Q03530; calls only; yeast membranes, quenched prenylated peptide cleavage fluorescence; hit rate 0.27% among 290,000;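 active = fall in fluorescence gain of 50% or more versus controls, with final raw signal at or below 3038400; inconclusive = same 50% fall but final raw signal above 3038400; inactive = fall in fluorescence gain under 50%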;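 also: plate controls were neutral control wells for no effect and wells lacking membranes for full effect; tested at 10 µM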
Target sequence (Q03530 whole entry, looked up): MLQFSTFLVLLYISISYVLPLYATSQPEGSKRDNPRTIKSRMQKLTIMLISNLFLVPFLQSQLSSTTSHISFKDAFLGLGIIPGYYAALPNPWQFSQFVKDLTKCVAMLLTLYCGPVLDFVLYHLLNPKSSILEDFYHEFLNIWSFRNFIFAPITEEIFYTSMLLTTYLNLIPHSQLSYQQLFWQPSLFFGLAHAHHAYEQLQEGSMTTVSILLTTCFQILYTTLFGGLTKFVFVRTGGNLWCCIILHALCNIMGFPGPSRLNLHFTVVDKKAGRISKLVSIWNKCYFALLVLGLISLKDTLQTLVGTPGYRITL
eIF4H FP inh – inhibitors of RNA binding by human eIF4H; eIF4H fluorescence polarization binding assay; inhibition, % at 35 µM; hit rate 0.94% among 290,000; AID 2012;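 active = 50% or more with normal probe brightness, or confirmed in later tests; inconclusive = above 50% with abnormal brightness, or retests that disagree; inactive = below 50% or failed in later tests; about a fifth of its hits are not listed in these tables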;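 also: calls also rest on retests at 20 µM and on dose response follow-up; 0% = protein and probe with vehicle and 100% = probe without protein; strong numbers were not always called active; many hits fall short of the cut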
CSC inhib – cancer stem cell inhibition; cancer stem cell-like cells viability, luminescence; inhibition, % at 7.5 µM; hit rate 1.1% among 300,000; AID 2717;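 active = mean at 75% or more and at least half the replicates too; inconclusive = mean and replicates disagree; tested in HMLE shEcad cells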;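 also: 0% = median of negative and 100% = median of positive control wells; the first replicate is given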
HIV Env fusion – inhibitors of HIV Env-mediated cell fusion; HeLa-JRFL Env/CEM21 cell fusion, luciferase; inhibition, % at 12.3 µM; AID 651610; hit rate 1.1% among 360,000;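 active = mean replicate inhibition score of at least 50 and every replicate individually at or above 50; inconclusive = only one of the two criteria met; inactive = mean below 50 and not all replicates reaching 50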;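 also: 0% = plate neutral controls and 100% = maraviroc near 300 nM; one replicate is shown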
eIF4H FP inh retest – also measured in eIF4H FP inh; calls as there; inhibition, %; compound at 20 µM; confirmation average;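 mean of two retest wells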
PABP FP inh retest – further read-out of PABP FP inh, marked with its call; inhibition, %; compound at 20 µM; confirmation repeats;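 mean of two retest wells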
MT1-MMP act inh RFP – further read-out of MT1-MMP act inh, marked with its call; RFP signal change, %; measured here: RFP expression control read;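 0 = vehicle wells; hits needed this value within 50% of zero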
Active calls of the source: *; i = inactive; ? = inconclusive; . = not tested or not shown.

SMILES	PABP FP inh	Yeast UUG start	MT1-MMP act inh	MT1-MMP act inh RFP	Rce1 inhib	eIF4H FP inh	CSC inhib	HIV Env fusion	others
CCCN1CCN(CCCNC(=O)c2cc3c(=O)[nH]c4ccc(C)cc4c3s2)CC1	16	.	4	5	i	9	-11	-21
COc1cccc(NC(=O)N2CCCC2C(=O)NC23CC4CC(CC(C4)C2)C3)c1 (stereo unspecified)	-2	-16	0	2	i	4	3	?
O=C(Nc1ccc(F)cc1)c1nc[nH]c1C(=O)Nc1ccc([N+](=O)[O-])cc1	7	.	2	-2	i	6	32	8
O=C(Nc1ccc(Cl)cc1)C1C2CCCCC21 (stereo unspecified)	-9	3	-1	-3	i	-5	21	-75
O=C(c1ccc(S(=O)(=O)N2CCCCCC2)cc1)N1CCN(c2ccccc2F)CC1	-8	1	0	-9	i	-2	-12	-318
Cc1cc(C)n(C(=O)CNc2ccc(C)c(C)c2)n1	-8	-7	-3	-1	i	-5	-2	.
CCOC(=O)N1CCC(NC(=O)CSCc2nc(-c3cccc(OC)c3)oc2C)CC1	-3	-4	-3	-14	i	-6	-13	-23
CCCCC12CN3CCN(CC(C3)/C1=N\NC(=O)Nc1ccccc1)C2	-3	.	0	2	i	1	6	.
O=C(C1=NN[C@@H]2C(=O)N(c3ccccc3C(F)(F)F)C(=O)[C@H]12)c1ccc2ccccc2n1	-1	-2	-5	-3	i	2	-7	-15
O=C(NC1CCCCC1)NC1CCN(C(=S)NCc2ccco2)CC1	1	-18	3	2	i	-8	15	11
CCc1ccc(C(=O)NNC(=O)C2CSC3(C)CCC(=O)N23)cc1 (stereo unspecified)	.	-1	-1	2	i	.	-2	5
COc1ccc(-c2cn[nH]c2-c2ccc(OC)cc2O)cc1	-7	.	-12	-11	i	0	-6	58*
O=C(O)Cn1c(=S)sc2ccccc21	-6	.	-1	2	i	-6	.	-3
O=C(CN(C(=O)CNC(=O)c1ccco1)c1ccc2c(c1)OCCO2)NC1CCCCC1	-5	.	-2	3	i	-9	-19	-14
O=C(NCCS(=O)(=O)N1CCCCCC1)c1ccccc1	.	-17	3	-2	i	.	-11	.
NCCSC1CC(=O)N(c2ccc(F)cc2)C1=O (stereo unspecified)	2	-5	1	3	i	-9	-9	-11
O=C(NCCN1CCc2ccccc2C1)C1CCN(S(=O)(=O)N2CCCCC2)CC1	-5	-9	-3	0	i	-12	-5	.
CCOCCCNC(=O)C1CCN(C(=O)Nc2ccc(Cl)cc2)CC1	-4	-7	4	8	i	0	-7	17
Cn1c2ccccc2c(=O)c2ccc(Cl)cc21	.	-15	-2	-1	.	.	.	-112
Cc1oc2c(C)c3oc(=O)c(CCC(=O)N4C[C@H]5C[C@@H](C4)c4cccc(=O)n4C5)c(C)c3cc2c1C	8	1	2	-7	i	-2	-1	.
Cc1cccc(CNC(=O)Cn2ccc3cc(S(=O)(=O)N4CCCCCC4)ccc32)c1	2	-13	-2	-5	i	-8	4	17
COc1ccc(N(C(=O)COc2ccc(F)cc2)S(=O)(=O)c2ccc(C)cc2)cc1	-1	-6	2	6	i	-7	-10	.
CCOc1ccc(-c2cc(C(=O)N3CCC(C)CC3)c3ccccc3n2)cc1	-3	-10	-4	-5	i	6	-10	-10
O=C(CCc1nc(-c2ccccc2)no1)NCc1ccco1	-4	-9	-3	-1	i	2	-7	.
CCOC(=O)C1CCN(C(=O)Cc2c(C(=O)O)[nH]c3ccccc23)CC1	-2	-12	-1	0	i	-2	-7	-1
CCCc1c(C)nc(N2CCN(c3ccc(F)cc3)CC2)[nH]c1=O	-1	-13	2	-5	i	-2	-17	-15
Cc1noc(N)c1C(=O)Nc1ccc(C(C)(C)C)cc1	-13	-2	-2	3	i	-7	1	-85
Cc1cc(C)cc(C(=O)NC(CC(N)=O)c2ccc(NC3CCCCCCCCCCC3)c([N+](=O)[O-])c2)c1 (stereo unspecified)	-2	-9	8	4	i	3	27	0
Fc1ccccc1CNCCC(Cc1ccccc1)c1ccc2c(c1)OCO2 (stereo unspecified)	5	1	-4	-5	i	-1	-17	-29
O=C(CSc1ncnc2scc(-c3ccccc3)c12)NCc1ccc2c(c1)OCO2	9	.	-3	-2	i	-15	-3	22

Arranged by molar mass (highest first): some entries from above
SMILES	PABP FP inh	Yeast UUG start	MT1-MMP act inh	MT1-MMP act inh RFP	Rce1 inhib	eIF4H FP inh	CSC inhib	HIV Env fusion	others
Cc1cc(C)cc(C(=O)NC(CC(N)=O)c2ccc(NC3CCCCCCCCCCC3)c([N+](=O)[O-])c2)c1 (stereo unspecified)	-2	-9	8	4	i	3	27	0
Cc1oc2c(C)c3oc(=O)c(CCC(=O)N4C[C@H]5C[C@@H](C4)c4cccc(=O)n4C5)c(C)c3cc2c1C	8	1	2	-7	i	-2	-1	.
O=C(CN(C(=O)CNC(=O)c1ccco1)c1ccc2c(c1)OCCO2)NC1CCCCC1	-5	.	-2	3	i	-9	-19	-14
Cc1cccc(CNC(=O)Cn2ccc3cc(S(=O)(=O)N4CCCCCC4)ccc32)c1	2	-13	-2	-5	i	-8	4	17
O=C(CSc1ncnc2scc(-c3ccccc3)c12)NCc1ccc2c(c1)OCO2	9	.	-3	-2	i	-15	-3	22
O=C(NCCN1CCc2ccccc2C1)C1CCN(S(=O)(=O)N2CCCCC2)CC1	-5	-9	-3	0	i	-12	-5	.
COc1ccc(N(C(=O)COc2ccc(F)cc2)S(=O)(=O)c2ccc(C)cc2)cc1	-1	-6	2	6	i	-7	-10	.
CCOc1ccc(-c2cc(C(=O)N3CCC(C)CC3)c3ccccc3n2)cc1	-3	-10	-4	-5	i	6	-10	-10
CCOCCCNC(=O)C1CCN(C(=O)Nc2ccc(Cl)cc2)CC1	-4	-7	4	8	i	0	-7	17
O=C(NC1CCCCC1)NC1CCN(C(=S)NCc2ccco2)CC1	1	-18	3	2	i	-8	15	11
CCOC(=O)C1CCN(C(=O)Cc2c(C(=O)O)[nH]c3ccccc23)CC1	-2	-12	-1	0	i	-2	-7	-1
CCc1ccc(C(=O)NNC(=O)C2CSC3(C)CCC(=O)N23)cc1 (stereo unspecified)	.	-1	-1	2	i	.	-2	5
O=C(NCCS(=O)(=O)N1CCCCCC1)c1ccccc1	.	-17	3	-2	i	.	-11	.
O=C(CCc1nc(-c2ccccc2)no1)NCc1ccco1	-4	-9	-3	-1	i	2	-7	.
COc1ccc(-c2cn[nH]c2-c2ccc(OC)cc2O)cc1	-7	.	-12	-11	i	0	-6	58*
Cc1noc(N)c1C(=O)Nc1ccc(C(C)(C)C)cc1	-13	-2	-2	3	i	-7	1	-85
NCCSC1CC(=O)N(c2ccc(F)cc2)C1=O (stereo unspecified)	2	-5	1	3	i	-9	-9	-11
Cn1c2ccccc2c(=O)c2ccc(Cl)cc21	.	-15	-2	-1	.	.	.	-112

Next structures.
SMILES	PABP FP inh	Yeast UUG start	MT1-MMP act inh	MT1-MMP act inh RFP	Rce1 inhib	eIF4H FP inh	CSC inhib	HIV Env fusion	others
N/C(=N\OC(=O)Nc1ccc(Cl)cc1)c1ncc(C(F)(F)F)cc1Cl	-1	-9	8	2	i	-7	.	.
O=C(CCc1nnc(CCc2c[nH]c3ccccc23)o1)NC1CCC1	3	-12	-2	1	i	8	7	-30
COc1ccc(NC(=O)CN(C)CC(=O)Nc2ccc3c(c2)CCC3)cc1	?	.	-6	-3	i	?	0	15
CC(OC(=O)c1ccc(NC(=O)CC#N)cc1)C(=O)NC(c1ccccc1)c1ccccc1 (stereo unspecified)	.	-14	-2	0	.	.	10	10
CCN(CC)C(=O)COc1ccc2c(c1)C(=O)CC(C)(C)O2	24	-19	0	0	i	-2	-6	-9
N#Cc1c(-n2cccc2C=O)sc2c1CCCC2	0	.	-2	0	i	-7	0	9
Cc1ccc(CNS(=O)(=O)/C=C/c2ccc3c(c2)OCO3)cc1	-14	-11	3	2	i	0	18	-29
COc1ccccc1NC(=O)C(C)N(C)Cc1ccc(Cl)s1 (stereo unspecified)	-7	-12	-1	-5	i	3	12	18
COc1ccc2c(c1)c(=O)oc1cc(OC(C(=O)O)c3ccccc3)ccc12 (stereo unspecified)	17	9	-4	3	i	14	20	6
C=CCc1cccc(/C=N/NC(=O)C(C)Nc2cccc(C)c2)c1O (stereo unspecified)	95	.	0	-7	i	0	52	15	eIF4H FP inh retest=-2;PABP FP inh retest=6
COc1ccccc1NC(=O)c1c(Br)cnn1C	42	.	0	0	i	-4	.	-30
O=c1cc(-c2ccccc2)nc2n1Cc1ccccc1-2	-2	-2	3	5	i	0	.	-6
Cc1[nH]n(-c2ccccc2)c(=S)c1C=Nc1cccc([N+](=O)[O-])c1	8	-13	-10	-8	i	4	-11	-25
O=C(c1cccc([N+](=O)[O-])c1)N1CCN(c2cccc(Cl)c2)CC1	2	.	1	-7	i	8	55	-217
Cc1cc(C)c2c(CN3CCN(C)CC3)cc(=O)oc2c1	2	-7	-1	2	i	-9	-11	-98
C=C(C)C1CC=C(C)/C(=N/NC(=O)C2CC2c2ccccc2)C1 (stereo unspecified)	5	.	0	-2	i	0	0	-37
CCOC(=O)[C@H]1[C@H]2COc3cc(OC)ccc3[C@@H]2N2C(=O)c3cc(C)ccc3NC(=O)[C@@]12C	.	-4	0	1	.	.	-10	-155
Cn1c(=S)n(C)c2ccccc21	13	1	-14	0	i	-2	-12	-5
CC(=O)Nc1ccc(C(=O)Nc2nc(-c3ccccn3)cs2)cc1	2	.	-1	0	i	32	17	12
Cc1ccc(C2(C)NC(=O)N(CC(=O)N3c4ccccc4NC(=O)CC3C)C2=O)cc1 (stereo unspecified)	.	-15	1	-1	.	.	.	-8
CCN(CC)CCCn1c2c(c(SCC(=O)Nc3nc4ccccc4s3)nc1=O)CCC2	.	18	0	0	i	.	19	-4
Cc1ccc(C(=O)CSc2ccccn2)cc1	2	-18	5	7	i	4	12	.
CC1(C)C2CCC1(CS(=O)(=O)NC1CCCC1)C(=O)C2 (stereo unspecified)	3	-4	.	.	i	-3	-11	-3
COc1ccc(Nc2c(-c3ccco3)nc3cccc(C)n23)cc1	-1	-13	4	-3	i	?	0	18
Cc1cccc(NC(=O)CSc2nnc(CN3CCOCC3)n2C)c1C	-11	.	-5	-1	i	0	9	19
Cc1ccc(C(=O)NCCCNC(=O)c2ccc(C)nc2)cc1	0	0	0	3	i	9	-8	-14
C=CCN(c1ccccc1)S(=O)(=O)c1cccc(C(=O)NCC(c2ccc(OC)cc2)N2CCCCC2)c1 (stereo unspecified)	.	6	-2	-5	.	.	.	-18
Cc1nnc(SCCCn2c(N3CCN(c4ccccc4)CC3)nc3c2c(=O)[nH]c(=O)n3C)s1	-2	2	6	1	i	-17	-3	.
Nc1cc(N)nc(SCC(=O)NNC(=O)c2ccc(Cl)cc2)n1	-1	-17	-1	1	i	-12	-13	-441
Oc1ccc(N=Nc2ccc3c(c2)OCCO3)c2ncccc12	-8	-22	16	-19	i	8	98*	12
CC(C)CN(CCNC(=O)CN1C(=O)COc2ccc(S(=O)(=O)N3CCC(C)CC3)cc21)CC(C)C	-4	17	-1	-1	i	-1	4	3
